# BJeLR viability: kills HRASV12-expressing BJeLR cells; BJeLR (HRASV12) viability, CellTiter-Glo ATP luminescence, 48 h; reference of the scale not given here; inhibition, % (no concentration beside the values); actives 0.17% (n = 300,000); AID 1554;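 active = replicate mean above 50%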;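 note: 50 nL library stock added to about 25 µL; numbers are from one replicate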
# ugtP null kill: kills S. aureus RN4220 lacking UgtP; actives 0.54% (n = 330,000); S. aureus RN4220 ugtP deletion, OD600 growth, 16 h; some inactives read as strong as hits; growth inhibition, % (test concentration not listed);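 active = z-score under -3 and OD600 up to 0.15 on both plates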;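 note: plate controls were untreated wells for no effect and antibiotic for full effect; wells of about 80 µL received 100 nL stock; the first replicate is given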
# Autofluor counter: compound fluorescence in toxin protease inhibitor counterscreen; AID 624483; fluorescence intensity (concentration not given with the values); compound autofluorescence counterscreen, microsphere flow cytometry; stronger effect = higher value; actives 3.1% (n = 360,000);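 active = at least 3 SD above the mean of all compounds, about 16000 in these data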;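 note: 100 nL of 1 mM stock went into each well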
# Mtb hypoxia inh: Mtb hypoxia fluorescent reporter inhibition; actives 0.1% (n = 300,000); fluorescence inhibition, % (no concentration beside the values); M. tuberculosis hypoxia-regulated fluorescent reporter, fluorescence;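 active = 35 to 45% if threefold the growth effect, above 45% if 1.5-fold the growth effect; inactive = the rest, general growth blockers included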;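 note: wells of about 50 µL received 100 nL stock; 0% = vehicle wells and 100% = reference inhibitor wells; whole bacteria with a GFP reporter of the hypoxia response; strong numbers were not always called active; many hits fall short of the cut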
# Sa RN4220 lethal: kills Staphylococcus aureus RN4220 | S. aureus RN4220 growth, OD600, 16 h | inhibition, % (concentration not given with the values) | actives 0.33% (n = 330,000);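 active = z-score of -3 or lower and OD600 up to 0.18 on both plates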;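 note: plate controls were untreated cells for no effect and reference antibiotic for full effect; stock transfer was 100 nL into about 80 µL; one replicate is shown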
# PrP UTR inh: suppresses PrP 5' UTR mRNA reporter expression; cell-based PrP 5' UTR mRNA reporter, plate reader; inhibition, % (test concentration not listed); actives 0.35% (n = 340,000); AID 488862;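 active = every replicate at 50% or more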;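 note: 0 = median of the neutral control wells; tested in H4 reporter cells; numbers are from one replicate; inactives centre near -14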
# Mtb hypoxia inh growth: further read-out of Mtb hypoxia inh, marked with its call; growth inhibition, %; measured here: M. tuberculosis growth (absorbance);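 0% = vehicle and 100% = reference antibiotic; read after six days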
# * marks the source's active call; other numbers are inactive results; x = no result given.
SMILES,BJeLR viability,ugtP null kill,Autofluor counter,Mtb hypoxia inh,Mtb hypoxia inh growth,Sa RN4220 lethal,PrP UTR inh
CC[C@@]12C(=O)N(c3ccc(C)cc3)C(=O)N1C(c1ccc(Br)cc1)C1C(=O)N(C(C)(C)C)C(=O)C12 (stereo partly specified),x,1,x,-2,-4,2.8,x
CC(OC(=O)/C=C/c1cccs1)C(=O)Nc1ccc(C(N)=O)cc1 (stereo unspecified),x,-4,8496,-10,1,0.0,-15
CC(=O)CSc1ncnc2nc[nH]c12,2,-5,3242,4,22,4.0,-9
O=C(CNc1ccccc1F)Nc1cccc(S(=O)(=O)N2CCCCC2)c1,x,16,4753,9,-3,2.0,-13
CCN(CC)C(=O)C1CCCN(Cc2ccc(OC)c(C)c2)C1 (stereo unspecified),4,-6,16141*,0,5,-0.8,-28
CCC1CCCCN1CCCNC(=O)C1CCC(=O)N1Cc1ccc(C)cc1 (stereo unspecified),-10,2,3877,8,9,7.1,-23
COc1cc2c(cc1OC)C(c1ccc([N+](=O)[O-])cc1)N(C(C)=O)CC2 (stereo unspecified),0,0,3781,13,6,5.8,-5
COCCCNc1nc2c(c(=O)[nH]c(=O)n2C)n1CC(O)COc1ccccc1C (stereo unspecified),-2,-7,5232,x,x,4.3,-21
CCn1nnc(NC(=O)c2ccco2)n1,-5,2,3632,12,8,3.4,-20
CCn1ccnc1CN(C)C(=O)C1CCC(=O)N(Cc2cccc(C(F)(F)F)c2)C1 (stereo unspecified),3,11,x,9,-35,5.7,-10
COC(=O)c1ccc(Oc2cc(C)nc(-n3nc(C)cc3C)n2)cc1,42,11,11048,5,13,-3.2,59*
Cc1cc([N+](=O)[O-])nn1CC(=O)Nc1nc2ccccc2s1,-2,0,3334,-7,-15,-2.1,-12
COc1ccc(F)cc1C(=O)C1CCCN(Cc2cnc(C)s2)C1 (stereo unspecified),4,-2,2573,4,2,5.2,-2
O=S(=O)(c1ccc2ccccc2c1)n1cccn1,-2,-5,5592,7,5,6.2,-7
O=[N+]([O-])c1cccc(S(=O)(=O)N2CCC(c3nc(-c4ccncc4)no3)CC2)c1,9,0,6157,1,9,1.4,7
O=C(O)/C=C/C(=O)Nc1ccc(-n2nccc2C(F)(F)F)cc1,1,1,3173,3,12,2.1,-1
O=C(NCc1cccnc1)C1CCN(S(=O)(=O)c2cc(Cl)ccc2Cl)CC1,-3,7,2942,7,4,2.3,-12
CN(c1cccc(NC(=O)CN(c2ccc(C34CC5CC(CC(C5)C3)C4)cc2)S(C)(=O)=O)c1)S(C)(=O)=O,0,6,6132,9,6,10,-7
COc1ccc(C2CC(c3ccccc3)=NN2C(=O)COC(=O)/C=C/c2ccc(O)c(OC)c2)cc1 (stereo unspecified),7,-4,2290,1,4,7.9,-14
COc1ccc(S(=O)(=O)N2CCOC23CCN(S(C)(=O)=O)CC3)cc1,6,18,x,5,9,4.7,-2
CCOC(=O)NN=Cc1cc(C)n(-c2cccc3ccccc23)c1C,x,11,x,3,3,-3.5,x
O=C(COC(=O)C1CC(O)CN1C(=O)Oc1ccccc1)c1ccc(Br)cc1 (stereo unspecified),-7,0,1974,x,x,3.7,-13
COc1cccc(C(=O)NC(Cc2ccccc2)c2ccc3c(c2)OCCCO3)c1 (stereo unspecified),3,-1,10132,-4,1,2.1,-20
CC(C)CNS(=O)(=O)c1ccc(CCC(=O)NCC2CCCO2)cc1 (stereo unspecified),6,0,2967,x,x,3.6,-1
Cc1sc2nc(C)n(/N=C/c3ccc(O)cc3)c(=O)c2c1C,-3,x,4164,x,x,x,-7
# Next compounds.
SMILES,BJeLR viability,ugtP null kill,Autofluor counter,Mtb hypoxia inh,Mtb hypoxia inh growth,Sa RN4220 lethal,PrP UTR inh
CSc1nc(/C=C2\C=Nc3ccccc32)c(O)n1C,7,x,2538,x,x,x,-11
CCOc1ccc(C(=O)NNC(=O)CCNC(=O)c2ccco2)cc1OC,0,6,5240,10,2,2.4,-20
CCSc1nnc(NC(=O)C2CC(=O)N(Cc3ccccc3)C2)s1 (stereo unspecified),19,6,4429,5,21,7.9,11
COc1cccc(C2CC3C(=O)C=CC2N3Cc2ccccc2)c1 (stereo unspecified),-15,-12,1999,8,9,31,-10
CCOC(=O)N1CCN(Cc2nnc(-c3cccc(Br)c3)o2)CC1,1,6,3049,11,10,2.9,-16
Cc1occc1C(=O)N/N=C/c1cccnc1,0,x,9186,x,x,x,-23
CCOc1cc(-c2cn(S(=O)(=O)c3cccc4nsnc34)nc2N)cc(OCC)c1OCC,-5,21,11630,3,-2,7.2,-18
CCOC(=O)C1=C(CNC2CCCCC2)NC(=O)NC1c1cc(C)ccc1C (stereo unspecified),-1,-2,4283,x,x,-1.2,-1
O=S(=O)(Nc1cccc(-n2cnnn2)c1)c1cccc(Cl)c1,-10,1,5585,-2,0,3.4,-22
Cc1cc(N2CCCC2)nc(N2C3CCC2CC(O)(c2ccc(F)cc2)C3)n1 (stereo unspecified),3,4,x,18,2,0.2,x
CN(CC(=O)Nc1c(Cl)cccc1Cl)C(=O)CNC(=O)c1ccc2ccccc2c1,1,1,7076,8,5,2.2,-17
O=C1Nc2ccccc2C12OCC(COc1ccc(Cl)cc1)O2 (stereo unspecified),-6,-3,8445,9,6,10,-20
CCN(CC)S(=O)(=O)c1cccc(NC(=O)c2cc3ccccc3o2)c1,-10,-2,4359,7,5,-2.6,-29
COc1ccc(-c2nc(CS(=O)CC(=O)NCc3ccc(Cl)cc3)c(C)o2)cc1OC (stereo unspecified),-2,0,5131,-1,-1,0.9,-10
COc1ccc(C(=O)Oc2c(C)occc2=O)cc1OC,0,10,4845,x,x,-0.4,7
CCOC(=O)CCNC(C)C1COc2ccccc2O1 (stereo unspecified),13,0,2384,x,x,-4.4,-8
CN(C(=O)CC1C(=O)NCCN1CC(c1ccccc1)c1ccccc1)C(C1CC1)C1CC1 (stereo unspecified),12,10,4474,13,2,2.7,-22
COc1cccc2c1OCC1COc3c(c(=O)n(C)c(=O)n3C)C21 (stereo unspecified),-9,-10,2354,5,3,-10,-23
CCCc1nc(SCC(=O)Nc2ccc(N3CCOCC3)cc2)c2ccccc2n1,-10,x,5940,x,x,x,-4
CC(=O)Nc1ccc(C(=O)NCC(=O)OCc2ccccc2F)cc1,-3,2,4357,8,7,0.0,-11
Cc1ccc(CN(Cc2ccccn2)C(=O)Nc2ccc(C)c(C)c2)cc1,-2,3,3961,4,5,-1.1,-23
O=C(O)C1(S(=O)(=O)CCC(F)=C(F)F)CC1,-1,2,4617,-5,-16,3.6,-22
CCN(CC)CCN1C(=O)c2ccccc2NC1c1ccc(Br)cc1 (stereo unspecified),0,4,4979,-2,0,3.9,-15
C=CCNc1nnc(SCC(=O)N2CCC(C(N)=O)CC2)s1,-16,1,5823,6,1,5.5,-83
CCCSC1=C(C#N)C(c2ccc(OC)cc2)C2=C(CC(C)(C)CC2=O)N1 (stereo unspecified),-7,20,3459,2,5,5.2,-5
# Next records
SMILES,BJeLR viability,ugtP null kill,Autofluor counter,Mtb hypoxia inh,Mtb hypoxia inh growth,Sa RN4220 lethal,PrP UTR inh
CN(C(=O)c1cccc(NC(=O)Cc2ccc(NC(=O)C3CCN(C(=O)C4CC4)CC3)cc2)c1)C1CCCCC1,x,2,3820,-8,1,1.0,0
CCOc1ccc(-n2cc(C(=O)Nc3cccc(C)n3)c3cc(OC)c(OC)cc3c2=O)cc1,-10,1,3330,x,x,-5.9,-13
CCOc1ccc(/C(O)=C2/C(=O)C(=O)N(c3ccccn3)C2c2ccc(C)cc2)c(C)c1 (stereo unspecified),0,4,3853,-3,-11,4.4,-8
Cc1sc2ncn(CC(=O)NCCCOC(C)C)c(=O)c2c1S(=O)(=O)N1CCN(c2ncccn2)CC1,7,15,3993,3,0,0.5,-13
Cc1nnc(SCC(=O)N(C)c2ccccc2)n1-n1cccc1,14,5,6305,3,10,2.6,-15
NS(=O)(=O)c1ccc(N/N=C/c2cn(-c3ccccc3)nc2-c2ccccc2)c([N+](=O)[O-])c1,17,x,4041,x,x,x,-32
CCN1CCN(c2nc3sc4c(c3c(=O)n2-c2ccc(OC)cc2)CCCCC4)CC1,-5,15,16947*,10,6,4.0,-10
CCCCNS(=O)(=O)/C=C/c1ccccc1,5,-2,2258,15,15,3.2,-27
CCc1nc(C)cn1S(=O)(=O)c1cc(Cl)c(OC)cc1Cl,-7,-42,9720,9,6,-4.1,-14
O=C(Nc1ccccc1Cl)C1CCCN1C(=O)OCc1ccccc1 (stereo unspecified),6,2,5947,-3,2,5.0,-13
O=C(NCC1CCCO1)C1c2ccccc2C(=O)N1C1CCCCCC1 (stereo unspecified),0,5,11181,4,8,0.6,-26
COc1ccc(C)cc1N(C(=O)Cn1nnc(-c2ccc(C)o2)n1)C(C(=O)NC1CCCC1)c1ccncc1 (stereo unspecified),1,4,3459,9,2,0.1,-29

# An excerpt from further up:
SMILES,BJeLR viability,ugtP null kill,Autofluor counter,Mtb hypoxia inh,Mtb hypoxia inh growth,Sa RN4220 lethal,PrP UTR inh
CCN(CC)CCN1C(=O)c2ccccc2NC1c1ccc(Br)cc1 (stereo unspecified),0,4,4979,-2,0,3.9,-15
C=CCNc1nnc(SCC(=O)N2CCC(C(N)=O)CC2)s1,-16,1,5823,6,1,5.5,-83
CCCSC1=C(C#N)C(c2ccc(OC)cc2)C2=C(CC(C)(C)CC2=O)N1 (stereo unspecified),-7,20,3459,2,5,5.2,-5
CN(C(=O)c1cccc(NC(=O)Cc2ccc(NC(=O)C3CCN(C(=O)C4CC4)CC3)cc2)c1)C1CCCCC1,x,2,3820,-8,1,1.0,0
CCOc1ccc(-n2cc(C(=O)Nc3cccc(C)n3)c3cc(OC)c(OC)cc3c2=O)cc1,-10,1,3330,x,x,-5.9,-13
CCOc1ccc(/C(O)=C2/C(=O)C(=O)N(c3ccccn3)C2c2ccc(C)cc2)c(C)c1 (stereo unspecified),0,4,3853,-3,-11,4.4,-8
Cc1sc2ncn(CC(=O)NCCCOC(C)C)c(=O)c2c1S(=O)(=O)N1CCN(c2ncccn2)CC1,7,15,3993,3,0,0.5,-13
Cc1nnc(SCC(=O)N(C)c2ccccc2)n1-n1cccc1,14,5,6305,3,10,2.6,-15
NS(=O)(=O)c1ccc(N/N=C/c2cn(-c3ccccc3)nc2-c2ccccc2)c([N+](=O)[O-])c1,17,x,4041,x,x,x,-32
CCN1CCN(c2nc3sc4c(c3c(=O)n2-c2ccc(OC)cc2)CCCCC4)CC1,-5,15,16947*,10,6,4.0,-10
CCCCNS(=O)(=O)/C=C/c1ccccc1,5,-2,2258,15,15,3.2,-27
CCc1nc(C)cn1S(=O)(=O)c1cc(Cl)c(OC)cc1Cl,-7,-42,9720,9,6,-4.1,-14
O=C(Nc1ccccc1Cl)C1CCCN1C(=O)OCc1ccccc1 (stereo unspecified),6,2,5947,-3,2,5.0,-13
O=C(NCC1CCCO1)C1c2ccccc2C(=O)N1C1CCCCCC1 (stereo unspecified),0,5,11181,4,8,0.6,-26
COc1ccc(C)cc1N(C(=O)Cn1nnc(-c2ccc(C)o2)n1)C(C(=O)NC1CCCC1)c1ccncc1 (stereo unspecified),1,4,3459,9,2,0.1,-29

# For convenience, part of the list above.
SMILES,BJeLR viability,ugtP null kill,Autofluor counter,Mtb hypoxia inh,Mtb hypoxia inh growth,Sa RN4220 lethal,PrP UTR inh
CCc1nc(C)cn1S(=O)(=O)c1cc(Cl)c(OC)cc1Cl,-7,-42,9720,9,6,-4.1,-14
O=C(Nc1ccccc1Cl)C1CCCN1C(=O)OCc1ccccc1 (stereo unspecified),6,2,5947,-3,2,5.0,-13

# Rows were taken by chance (roughly 4% active in at least one column).
